Compound activity deposited in PubChem by National Center for Advancing Translational Sciences (NCATS).
StopGo reporter – lowers the luciferase signal of an FMDV 2A StopGo reporter; human cells with a luciferase reporter of 2A StopGo recoding; control for the full effect not named in the record; Potency, µM (doses to about 57.9 µM), without a hit: at the highest dose signal change, negative = less light; actives 1.2% (n = 410,000); active = well fitted falling curve with a large enough effect; inconclusive = small, poorly fitted or top-dose-only effect; inactive = no such curve, though single readings can be large or run the other way; tested in HEK293T cells; also: % is scaled to controls: 0 for no effect and ±100 for the full control effect; nearly all actives have a fitted effect of over 45% in size; luciferase light after 4 h
Cruzain noTriton – cruzain (T. cruzi) inhibition without detergent | actives 2.3% (n = 200,000) | purified cruzain, Z-FR-AMC fluorescence, no detergent | Potency, µM, for the others: max response, negative = inhibition, actives largely listed as inhibitors | AID 1476; active = well fitted curve in the direction sought with a large enough effect; inconclusive = small, poorly fitted or top-dose-only effect, or another doubt; inactive = no such curve, though single readings can be large; an effect the other way counts as inactive or inconclusive;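 also: plate controls were enzyme without inhibitor for no effect and buffer without enzyme for full effect; nearly all actives have a fitted effect of over 40% in size; top concentration of the series not given in the record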
Target sequence (P25779 123-467 limits assumed): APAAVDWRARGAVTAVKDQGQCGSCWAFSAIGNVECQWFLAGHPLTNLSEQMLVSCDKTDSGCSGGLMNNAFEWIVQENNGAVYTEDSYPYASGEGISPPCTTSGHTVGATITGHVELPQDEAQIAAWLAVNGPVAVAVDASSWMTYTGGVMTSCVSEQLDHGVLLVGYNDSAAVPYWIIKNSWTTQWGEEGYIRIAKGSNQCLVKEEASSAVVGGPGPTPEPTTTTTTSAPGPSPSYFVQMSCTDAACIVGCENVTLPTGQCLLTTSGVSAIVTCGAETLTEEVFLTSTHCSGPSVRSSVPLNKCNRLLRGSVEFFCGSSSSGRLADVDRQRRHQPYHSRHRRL
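Detergent-free condition (0.00005% Triton X-100) in acetate buffer pH 5.5 with DTT. 1.5 nM enzyme and compound were pre-mixed 15 min, then 2 uM Z-FR-AMC substrate added; reaction progress from fluorescence change between first and third reads (60 s).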
LASV entry inh – Lassa virus entry inhibition. actives 1.2% (n = 300,000). AID 540256. Potency, µM (top dose mostly 37.9 µM), for inactives: top-dose activity change, negative = inhibition, actives largely listed as inhibitors. Lassa virus pseudotype entry inhibition, cell reporter; control for the full effect not named in the record; active means well fitted inhibition curve with a large enough effect; inconclusive means small, poorly fitted or top-dose-only effect, or effect the other way; inactive means flat fitted curve, though single readings scatter; tested in HEK293 cells; also: % is scaled to controls: 0 for no effect and ±100 for the full control effect; nearly all actives have a fitted effect of over 50% in size; luciferase read-out
SARS PLP yeast – SARS-CoV PLP inhibition in yeast. actives 0.19% (n = 330,000). AID 485353. Potency, µM (series often up to 32.9 µM), without a hit: at the top dose activity, positive = growth rescue. S. cerevisiae expressing SARS-CoV PLpro, growth rescue; control for the full effect not named in the record; also: 0% is about no effect; nearly all actives have a fitted effect of over 55% in size; growth read by luminescence after 48 h
RE007 growth inh – less growth of the S. pombe RE007 Vpr strain; S. pombe RE007 Vpr strain, BacTiter-Glo ATP luminescence, 24 h; control for the full effect not named in the record; Potency, µM (doses to about 92.2 µM), for the others: at the highest dose activity change, negative = less growth; actives 0.21% (n = 360,000); AID 651644; active = well fitted falling curve with a large enough effect; inconclusive = small, poorly fitted or top-dose-only effect; inactive = no such curve, though single readings can be large or run the other way;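 also: % is scaled to controls: 0 for no effect and ±100 for the full control effect; nearly all actives have a fitted effect of over 50% in size; the assay follows cell death caused by Vpr and the record does not say whether a fall means rescue or toxicity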
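Fission yeast RE007 carrying one integrated HIV-1 vpr copy, seeded at OD 0.01 in PMG+AL medium with 23 nL pinned compound. Grown 24 h at 30 degrees; viability read by BacTiter-Glo luminescence after 5 min.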
NS1 function inh – blocks influenza NS1 protein function; actives 0.4% (n = 270,000); Potency, µM (top dose mostly 46.1 µM), for inactives: top-dose activity, positive = more growth; AID 2326; S. cerevisiae slowed by influenza A NS1, growth recovery by OD600; also: actives are rising curves; nearly all actives have a fitted effect of over 50% in size
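A cell-based growth assay was used: compounds that relieve NS1-induced slow growth of budding yeast raise OD600. Assay medium was yeast nitrogen base with ammonium sulphate and -URA supplement, pH 6.0, with 2% galactose.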
Marburg entry inh – blocks Marburg virus binding to or entry into cells. Marburg virus pseudotyped entry inhibition, cell reporter; control for the full effect not named in the record; about a third of the inactives were read at about 46 µM. AID 540276. Potency, µM (top dose mostly 37.8 µM), without a hit: top-dose activity change, negative = inhibition, hits mostly inhibitors. actives 1.8% (n = 300,000); active = well fitted inhibition curve with a large enough effect; inconclusive = small, poorly fitted or top-dose-only effect, or effect the other way; inactive = flat fitted curve, though single readings scatter; tested in HEK293 cells; about a fifth of its hits are not listed in these tables; also: % is scaled to controls: 0 for no effect and ±100 for the full control effect; luciferase read-out
Cruzain inh Det – blocks cruzain activity in presence of Triton detergent | purified cruzain, Z-FR-AMC fluorescence, 0.01% Triton | Potency, µM, without a hit: max response, negative = inhibition, usual class: inhibitors | actives 0.43% (n = 200,000) | AID 1478; active = well fitted curve in the direction sought with a large enough effect; inconclusive = small, poorly fitted or top-dose-only effect, or another doubt; inactive = no such curve, though single readings can be large; an effect the other way counts as inactive or inconclusive;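 also: plate controls were neutral wells for no effect and buffer without enzyme for full effect; nearly all actives have a fitted effect of over 40% in size; top concentration of the series not given in the record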
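Read-out: AMC fluorescence (360 nm excitation, 450 nm emission), four reads over 2 min, first-to-third difference used. Conditions: cruzain 1.5 nM, Z-FR-AMC 2 uM, pH 5.5 acetate, 5 mM DTT, 0.01% Triton X-100.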
Starred values were filed as active, the others as inactive; u = inconclusive; x = not tested or not shown; & = joins results of further samples; [ ] = dose if it differs, or a comment. Unless noted, calls follow the shape of the dose curve; as a rule, active means well fitted rising curve with a large enough effect; inconclusive means small, poorly fitted or top-dose-only effect; inactive means no such curve, though single readings can be large or run the other way. Potency is read from the fitted curve at half-maximal effect.

SMILES	StopGo reporter	Cruzain noTriton	LASV entry inh	SARS PLP yeast	RE007 growth inh	NS1 function inh	Marburg entry inh	Cruzain inh Det
CC1(C)Cc2c(cnn2-c2ccc(F)cc2)C(NC(=O)CCN2CCCCC2=O)C1 (centres undefined)	-7%	x	u	1%	-21%	12%	11%	x
CCc1ccc(NC(=O)Cn2c(=O)n(CCCC(=O)NCc3ccco3)c(=O)c3ccccc32)cc1	-11%	u	-18%	1%	-2%	7%	u	4.7%
COc1cc(C(=O)Nc2ccc(C(C)=O)cc2)c(Br)c(OC)c1OC	-10%	-2%	u	14%	0%	12%	-2%	-4.1%
CCCn1c(-c2cccc(F)c2)nc2c1c(=O)[nH]c(=O)n2Cc1ccccc1	-18%	x	u	0%	4%	8%	-23%[46.1 µM]	x
COC(=O)C1=C(C)N(c2ccccc2)C(=S)NC1c1ccccc1C(F)(F)F (centres undefined)	-27%	x	u	0%	17%	x	-20%	x
CCOC(=O)c1ccc(Nc2nc(-c3cccnc3)nc3ccccc23)cc1	u	-2%	u	1%	18%	-12%	u	-3.8%
COCc1ccccc1Cn1cnc2c1c(=O)n(C)c(=O)n2C	-17%	-9%	-1%	3%	1%	-2%	9%	5.5%
COc1ccc(OC)c(NC(=O)/C=C/c2ccccc2[N+](=O)[O-])c1	-2%	-8%	-1%	-40%	-16%	21%	0%	-7.9%
COc1cccc(C2c3[nH]c4ccccc4c3C[C@H]3C(=O)N(c4ccccc4C(=O)N4CCC[C@H]4C(=O)O)C(=O)N23)c1 (some centres undefined)	-18%	x	x	4%	0%	u	x	x
CCC(=O)Nc1ccc2nc3c(=O)[nH]c(=S)[nH]c3nc2c1	-1%	x	23%[46.1 µM]	2%	-1%	5%	-26%[46.1 µM]	x
Cc1ccc(Nc2ncnc(-n3cccc3)n2)cc1Cl	73%[activator]	x	x	0%	-3%	-8%	x	x
CC(NC(=O)C(=O)NCCc1c[nH]c2ccccc12)c1ccccc1 (centres undefined)	-12%	x	x	-3%	5%	-1%	x	x
OC(COc1ccc2ccccc2c1)CN1CCOCC1 (centres undefined)	38%&56%[activator]	-3%	u	-3%	15%&-12%	2%	u	-2.2%
CC(=O)c1ccc(S(=O)(=O)N(C)CCCC(=O)NCc2ccc3c(c2)OCO3)cc1	18%	x	0%	0%	15%	x	3%	x
CCc1ccc(NC(=O)C2(c3ccccc3)CC2(Cl)Cl)cc1 (centres undefined)	u	-6%	16µM*	-27%	-5%	-120%	0%	-3.1%
Cc1cc(Oc2cc(NN3CCCCC3)c([N+](=O)[O-])cc2[N+](=O)[O-])c(C(=O)c2ccccc2)cc1Cl	-21%	x	x	0%	1%	-6%	x	x
COc1ccc(CNC(=O)CNS(=O)(=O)c2cccc(C#N)c2)cc1OC	-20%	x	8%[46.1 µM]	14%	6%	3%	-1%[46.1 µM]	x
Cn1nccc1C(=O)N1CCN(S(=O)(=O)c2ccc(Br)s2)CC1	-18%	x	16%	-1%	-10%	-5%	-20%	x
CCCOc1ccc(-c2cccc(NS(=O)(=O)c3ccc(CC)cc3)c2)nn1	15%	-26%	-16%[46.1 µM]	x	x	x	x	-8.8%
COc1cccc(C(=O)N2CC(=O)Nc3ccc(C)cc3C2c2ccc(F)cc2)c1OC (centres undefined)	-2%	-1%	u	x	x	x	-22%[46.1 µM]	-1.7%
COCCN(CCOC)c1cc(C)c(C#N)c2nc3ccccc3n12	-11%	-4%	-2%	-4%	-18%	6%	4%[46.1 µM]	-0.3%
O=C(CSc1nnc(COc2ccccc2)o1)N1CCN(c2ccccc2)CC1	-19%	10%	u	-1%	6%&2%	9%	-5%	-2.6%
N#Cc1cc2c(nc1SCC(=O)Nc1ccc(F)c(Cl)c1)C1CCN2CC1	1%	1%	-2%[46.1 µM]	x	x	x	u	-0.6%
COc1cc(-c2cc(=O)c3c(O)c(OC)c(OC)cc3o2)cc(OC)c1O	-22%	x	x	-1%	-13%	-3%	x	x
CCOc1ccc(CSC(CC(=O)O)C(=O)O)cc1 (centres undefined)	19%	-2%	3%	-5%	-7%	5%	8%	-2.2%

Full records from above. Values in the order: StopGo reporter	Cruzain noTriton	LASV entry inh	SARS PLP yeast	RE007 growth inh	NS1 function inh	Marburg entry inh	Cruzain inh Det
Record of `Cc1ccc(Nc2ncnc(-n3cccc3)n2)cc1Cl` = 73%[activator]	x	x	0%	-3%	-8%	x	x
Record of `COCc1ccccc1Cn1cnc2c1c(=O)n(C)c(=O)n2C` = -17%	-9%	-1%	3%	1%	-2%	9%	5.5%
Record of `COc1cccc(C2c3[nH]c4ccccc4c3C[C@H]3C(=O)N(c4ccccc4C(=O)N4CCC[C@H]4C(=O)O)C(=O)N23)c1` (some centres undefined) = -18%	x	x	4%	0%	u	x	x
Record of `CCc1ccc(NC(=O)Cn2c(=O)n(CCCC(=O)NCc3ccco3)c(=O)c3ccccc32)cc1` = -11%	u	-18%	1%	-2%	7%	u	4.7%

Reformatted: entries from further up
Results follow in this order: StopGo reporter, Cruzain noTriton, LASV entry inh, SARS PLP yeast, RE007 growth inh, NS1 function inh, Marburg entry inh, Cruzain inh Det
OC(COc1ccc2ccccc2c1)CN1CCOCC1 (centres undefined)
 : 38%&56%[activator], -3%, u, -3%, 15%&-12%, 2%, u, -2.2%
CC(=O)c1ccc(S(=O)(=O)N(C)CCCC(=O)NCc2ccc3c(c2)OCO3)cc1
 : 18%, x, 0%, 0%, 15%, x, 3%, x

Back to the main list, starting 3 compounds before the break.
SMILES	StopGo reporter	Cruzain noTriton	LASV entry inh	SARS PLP yeast	RE007 growth inh	NS1 function inh	Marburg entry inh	Cruzain inh Det
N#Cc1cc2c(nc1SCC(=O)Nc1ccc(F)c(Cl)c1)C1CCN2CC1	1%	1%	-2%[46.1 µM]	x	x	x	u	-0.6%
COc1cc(-c2cc(=O)c3c(O)c(OC)c(OC)cc3o2)cc(OC)c1O	-22%	x	x	-1%	-13%	-3%	x	x
CCOc1ccc(CSC(CC(=O)O)C(=O)O)cc1 (centres undefined)	19%	-2%	3%	-5%	-7%	5%	8%	-2.2%
Cn1cc(C(=O)O)c(-c2ccc3c(c2)OCCCO3)n1	-2%	x	20%	1%	-2%	-7%	-3%[46.1 µM]	x
COc1cnn(-c2ccc(F)cc2)c(=O)c1Br	12%	x	0%[46.1 µM]	0%	7%	x	25%[46.1 µM]	x
CN(C)S(=O)(=O)c1cccc(NC(=O)COC(=O)c2cc3ccccc3oc2=O)c1	-13%	x	7%[46.1 µM]	0%	8%	1%	u	x
CCCCCCCN1CCC(=O)N(CCO)CC1	-21%	x	x	-1%	-6%	-18%	x	x
COc1ccccc1C(=O)COC(=O)c1ccccc1O	20%	x	15%[46.1 µM]	-10%	-11%	x	-3%[46.1 µM]	x
CCOc1ccc(/C(O)=C2\C(=O)C(=O)N(c3cc(C)on3)C2c2ccccc2OC)cc1 (centres undefined)	-5%	10%	-3%	-5%	-9%	30%	7%	-7.8%
CS(=O)(=O)c1ccccc1C(=O)Nc1nc2ccccc2[nH]1	-4%	x	u	1%	-12%	3%	16%[46.1 µM]	x
Cc1ccc2[nH]c(C(=O)N/N=C/c3ccc([N+](=O)[O-])cc3)c(C)c2c1	19%	x	x	1%	-6%	-1%	x	x
CC(C)n1nnnc1C(c1ccc(F)cc1)N1CCN(C2CCCC2)CC1 (centres undefined)	-21%	6%	6%	7%	-2%	1%	-1%&2%	1.7%
CCOC(=O)c1c(NC(=O)CS(=O)(=O)c2ccc(Cl)cc2)sc2c1CCCC2	-9%	5%	6%[46.1 µM]	x	x	x	x	-1.4%
Cc1nc2c(Br)c(C)nn2c2c1CCC2	2%	x	26%[46.1 µM]	1%	-6%	x	23%[46.1 µM]	x
O=C(CNS(=O)(=O)c1cccs1)N1CCN(c2ccccc2Cl)CC1	30%	-4%	29%[46.1 µM]	x	x	x	u	-0.9%
Cc1ccc(C(=O)Nc2ccccc2Sc2ccccc2)cc1	12%	-12%	u	-2%	6%	-13%	-4%	-4.1%
N/C(Cc1ccc([N+](=O)[O-])cc1)=N\OC(=O)c1ccc(Br)cc1	-12%	-5%	22%	-64%	-24%	-47%	-25%	-2.2%
CC(C)c1ccc(NC2CCCN(C(=O)CCc3cn[nH]c3)C2)cc1 (centres undefined)	-10%	x	-1%	-6%	-8%	6%	27%	x
O=C(CN1CCN(c2ccccc2F)CC1)c1c[nH]c2ccccc12	-12%	-1%	-2%	-2%	-28%	-11%	-1%	-0.1%
Cc1cc(C)nc(N2CCN(c3ncnc4c3cnn4Cc3ccc(Cl)cc3Cl)CC2)n1	-8%	5%	-4%	3%	5%	-13%	12%&12%	-1.4%
CCOC(=O)C1(C)C=C(Nc2ccc(C(N)=O)cc2)C(=O)N1c1ccccc1 (centres undefined)	-9%	-3%	10%[46.1 µM]	x	x	x	2%[46.1 µM]	-6.1%
COc1cccc(NC(=O)CN(C)CC(=O)Nc2ccc(Cl)cc2[N+](=O)[O-])c1	-16%	x	15%	-6%	-8%	x	u	x
Nc1nnc(SCc2nnc(-c3ccccc3)o2)s1	26%	x	x	0%	4%	6%	x	x
COc1cc(C2c3c(oc4cc(C)c(C)cc4c3=O)C(=O)N2CCCN2CCOCC2)ccc1O (centres undefined)	-11%	16%	17%[46.1 µM]	x	x	x	13%[46.1 µM]	-8.8%
